# Calb biofilm kill = mixture kills Candida albicans biofilm cells | C. albicans biofilm persisters + clotrimazole, fluorescence viability; primary screen in compound mixtures of four per well | inhibition, % at 7.6 µM | AID 1242 | hit rate 0.02% among 120,000;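 active means inhibition above 30.3% in the primary screen of four-compound pools, then above 30% when the compound was retested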;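 further: compounds exposed to preformed 24 h biofilms for 48 h; the number belongs to the whole pool; some results filed as inactive read as strong as hits; inactives centre near 12; 0% = biofilm with clotrimazole alone and 100% = kill control; retested singly at about 60 µM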
#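 Test system: C. albicans CAF4-2 wild-type biofilms; buffer or medium: RPMI/MOPS medium, pH 7.0; schedule: 24 h biofilm formation, then 48 h compound exposure, 37 °C; detection: Alamar Blue fluorescence; measure: percent inhibition of biofilm viability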
# Active calls of the source: *. An excerpt; count on the stated rates, not on these rows.
SMILES,Calb biofilm kill
CCC(C)(C)c1ccc(OCC(=O)N(C)C)c(C(C)(C)CC)c1,9.6
CCOC(=O)c1c(NC(=O)COC(=O)c2ccccn2)sc2c1CCC2,19.4
C=CCn1c(=O)c2ccccc2n2c(SCC(=O)Nc3sc(C)c(CC)c3C(=O)OCC)nnc12,13.1
CC(C)(C)OC(=O)NCC12C=CC(O1)C1C(=O)N(Cc3ccccc3)C(=O)C12 (stereo unspecified),9.3
O=C(NCc1ccc(Cl)cc1)C1CCC(CNc2c(N3CCCCC3)c(=O)c2=O)CC1 (stereo unspecified),18.4
CCSC1=N/C(=C\c2ccccc2)C(=O)N1c1ccc(OC)cc1,-2.0
Cc1cccc(C)c1N(CC(=O)N1CCN(c2ccccc2F)CC1)S(C)(=O)=O,12.7
O=c1[nH]c(CN2CCN(CCO)CC2)nc2ccccc12,14.2
O=C(c1ccccc1)n1ccc(-c2cccs2)n1,1.2
Cc1cccc(C(=O)N2CCN(c3ccccn3)CC2)c1,4.2
Cc1ccc(C)n1-c1ccsc1C(=O)CC#N,4.7
COC(=O)/N=C/c1c(NCc2ccccc2)nc2c(C)cccn2c1=O,4.5
Cc1ccc(-n2c(O)c(C=Nc3ccccc3-c3n[nH]c(=S)[nH]c3=O)c3ccccc3c2=O)c(C)c1,13.4
CC(NS(=O)(=O)c1ccc(F)cc1)C(c1cccs1)N1CCN(C)CC1 (stereo unspecified),18.3
O=C(CSc1ccc2nnc(-c3ccc(F)cc3)n2n1)NCc1ccco1,16.5
Cc1cccc2cc(C#N)c(NCc3ccccc3)nc12,12.6
CC(OC(=O)c1oc2ccccc2c1COc1ccccc1)C(=O)NC(N)=O (stereo unspecified),10.6
CC1CC(C)CN(c2ncnc3c2cnn3C)C1 (stereo unspecified),0.7
Cc1ccccc1OCC1CNC(=O)O1 (stereo unspecified),6.8
Cc1ccc(CC2CC(=O)N(CCc3ccccc3)C2=O)cc1 (stereo unspecified),18.8
O=C(COc1cccc2cccnc12)N/N=C/c1ccccc1O,21.4
CN(C)C(=O)c1ccc(-n2cccn2)nc1,16.2
CCC(C)CN1CCC(CO)(Cc2ccccc2Cl)CC1 (stereo unspecified),19.4
Fc1cccc2sc(Nc3nc4cc5c(cc4s3)OCCO5)nc12,14.0
CCOc1ccc(NCc2cc3cc(OC)ccc3[nH]c2=O)cc1,15.2
CC(=N)c1c(O)c2ccccc2oc1=O,19.1
CCN(CC)C(=S)Nc1ccc(C(=O)OC)cc1,-2.3
CC(C)Nc1nc(NC(C)C)nc(SCC(N)=O)n1,2.1
CCC(C(=O)Nc1c[nH]c(=O)[nH]c1=O)c1ccccc1 (stereo unspecified),13.5
c1ccc2oc(-c3[nH]ncc3CN(Cc3ccncc3)CC3CCCO3)cc2c1 (stereo unspecified),15.0
CCC(C)C(=O)Nc1nnc(SCC(=O)NC(C)(C)C)s1 (stereo unspecified),16.1
Cc1ccc(-n2nc(C)c3c(C)onc3c2=O)cc1,4.2
CC(=O)c1cnc(SCc2ccc(Cl)cc2)nc1C,17.1
CCn1c(SCC(=O)Nc2nccs2)nnc1-c1ccc(C)cc1,7.8
CC1CCCN(C(=O)COc2ccc(NC(=O)c3cccs3)cc2)C1 (stereo unspecified),1.4
Cc1cc(N2CCC(C)CC2)nc(NCc2ccccc2)n1,22.0
COC(=O)c1cc(=O)n(Cc2ccc(OC)cc2)c(=NCc2ccc(OC)cc2)s1,9.3
COc1cc(/C=C2/C(=O)c3cccc([N+](=O)[O-])c3C2=O)c(Br)cc1O,12.6
COc1ccc(OCC(=O)Nc2cccc(NC(=O)c3ccco3)c2)cc1,10.7
CN(CCCNC(=O)c1cc2c(=O)[nH]c3ccccc3c2n1C)Cc1ccccc1,5.0

# Compounds from the list above that contain a Cl atom:
SMILES,Calb biofilm kill
O=C(NCc1ccc(Cl)cc1)C1CCC(CNc2c(N3CCCCC3)c(=O)c2=O)CC1 (stereo unspecified),18.4
CCC(C)CN1CCC(CO)(Cc2ccccc2Cl)CC1 (stereo unspecified),19.4
CC(=O)c1cnc(SCc2ccc(Cl)cc2)nc1C,17.1

# The listing continues:
SMILES,Calb biofilm kill
COc1ccc(OC)c(-c2csc(NC(=O)C3=NN(c4ccccc4)C(=O)CC3)n2)c1,12.4
CCCCc1ccc(N/C(N)=N/c2nc(C)cc(C)n2)cc1,12.5
Cc1ccc(C(c2nnnn2C2CCCCC2)N2CCc3ccccc32)cc1 (stereo unspecified),11.2
Cc1nn(-c2ccccc2)c(N2CCCC2)c1/C=N/NC(=O)c1cccc(S(=O)(=O)Nc2ccc(Cl)cc2)c1,8.1
CCOC(=O)C1(CCOc2ccccc2)CCN(Cc2ccc3nonc3c2)CC1,9.8
O=C(Nc1ccccc1)C1=C[C@@H](C2CC2)C[C@@H](OCCCCO)O1,18.2
O=C(O)CC12CC3CC(C1)CC(n1ncc(NCc4ccco4)c(Cl)c1=O)(C3)C2,20.6
O=c1cc2ncc(-n3cc([N+](=O)[O-])cn3)cn2[nH]1,18.5
CN(C)C(=O)CN1CCN(Cc2nc(CC3CC3)no2)CC1,17.9
COc1cc(/C=C/c2ccc3cccc([N+](=O)[O-])c3n2)ccc1OCC#N,4.3
CCCOc1ccc(C(CC(=O)O)NC(=O)CC(c2ccccc2)c2ccccc2)cc1 (stereo unspecified),9.8
CCOc1ccc2oc(C(=O)OCC(=O)NC(=O)NC)c(C)c2c1,13.0
CCOc1cc(C(=O)Nc2ccc(N3CCOCC3)cc2)cc(Br)c1OC,17.6
O=C(CNc1ccc2c(c1)OCO2)N/N=C\c1cn(Cc2ccc(F)cc2)c2ccccc12,16.2
c1ccc2c(N3CCCCC3)nc(N3CCOCC3)nc2c1,8.5
COc1ccc(NC2CC(=O)N(c3cccc([N+](=O)[O-])c3)C2=O)cc1 (stereo unspecified),7.7
O=C(O)CCCN=C1NC2(CCCC2)Cc2ccccc21,15.2
CCc1ccc(C2c3[nH]c4ccccc4c3CCN2C(=O)c2cc(C)nn2C)cc1 (stereo unspecified),-16.6
COc1ccc(OC)c(C(=O)c2ccc(Cl)cc2)c1,21.5
CCOc1cc(Br)c(C=O)cc1OCC,14.1
CC(C)(C)c1ccc(S(=O)(=O)N2CCCCC2)cc1,15.7
CCOC(=O)c1c(NC(=O)CNCCOC)sc2c1CCCC2,19.9
N=c1ccn(Cc2c(Cl)cccc2Cl)cc1,11.1
Cc1cc(C)cc(NC(=O)c2cc(Cl)sc2Cl)c1,1.1
N#CCCN(Cc1cccnc1)C(=S)NC(=O)c1ccco1,13.0
CC(CN1c2ccccc2Sc2ccccc21)N(C)C (stereo unspecified),5.4
O=C(Nc1ccc(F)cc1)N1CCCN(c2ccc(C(F)(F)F)cn2)CC1,-0.2
O=C(Nc1ccc([N+](=O)[O-])c(NC(=O)C2CCCO2)c1)C1CCCO1 (stereo unspecified),7.5
CC1=NNC(=O)C1Oc1ccccc1 (stereo unspecified),11.3
COc1ccc(/C(C)=N/Nc2nc3ccccc3nc2C)cc1,12.0
CN(C(=O)c1ccc2nccnc2c1)C1CCCCC1,16.1
c1ccc(CO/N=C(\c2ccc(C3CC3)nc2)C2CC2)cc1,16.3
O=C1CCC(C(=O)Nc2cccc(Oc3ccccc3)c2)=NN1,12.1
COc1ccc(C2=NN(C(=O)CSc3ncccn3)C(c3ccc(C)cc3)C2)cc1 (stereo unspecified),13.9
CCOc1ncccc1C(=O)N(CC)CC(=O)Nc1ccc(NC(C)=O)cc1,16.1
O=[N+]([O-])/C=C1\CCCCCN1,22.1
CC1=NN(c2ccc(C(=O)OC(C)C)cc2)C(=O)/C1=C\C=C\c1ccco1,16.9
C/C(=N/O)c1c(O)c(C)c(-c2ccccc2)n(-c2ccccc2)c1=O,19.9
Cc1no[n+]([O-])c1COc1cccc(/C=N/Nc2nncn2N)c1,13.9
S=c1[nH]nc(-c2cccnc2)n1/N=C/c1ccco1,6.7

# An excerpt from above in order of heavy-atom count, falling.
SMILES,Calb biofilm kill
O=C(O)CC12CC3CC(C1)CC(n1ncc(NCc4ccco4)c(Cl)c1=O)(C3)C2,20.6
COc1cc(/C=C2/C(=O)c3cccc([N+](=O)[O-])c3C2=O)c(Br)cc1O,12.6
CCOC(=O)c1c(NC(=O)CNCCOC)sc2c1CCCC2,19.9
CCC(C)C(=O)Nc1nnc(SCC(=O)NC(C)(C)C)s1 (stereo unspecified),16.1
CN(C(=O)c1ccc2nccnc2c1)C1CCCCC1,16.1
Cc1cc(C)cc(NC(=O)c2cc(Cl)sc2Cl)c1,1.1

# More structures
SMILES,Calb biofilm kill
O=C(CN1C(=O)NC2(CCCCCC2)C1=O)Nc1ccc2c(c1)CCC2,5.2
N#Cc1ccccc1OCCCNC1CCCC1,20.0
COc1ccc(C(=O)NC(=S)NC2CCSC2=O)cc1 (stereo unspecified),7.2
CC(C(=O)Nc1ccc(S(=O)(=O)N2CCOCC2)cc1)N1CCN(c2ccccn2)CC1 (stereo unspecified),14.7
COc1ccc(C(=O)NCCNc2ccc([N+](=O)[O-])cc2)cc1,14.9
CC(=O)Nc1ccc(NC(=O)c2ccc(-n3c(C)ccc3C)cc2)cc1,10.4
COc1ccc(CN2CCNC(=O)C2CC(=O)N(C)Cc2ccccn2)cc1OC (stereo unspecified),23.7
CCN(CC)C(=O)C1CCCN(c2ccc([N+](=O)[O-])cc2[N+](=O)[O-])C1 (stereo unspecified),32.1
O=C(Nc1ccccn1)c1ccc(S(=O)(=O)c2ccc(Cl)cc2)cc1,3.1
Cc1ccc(NC(=O)CCl)c(C)c1,8.6
NC(=O)C1CCCN(C(=S)NCc2ccc3c(c2)OCO3)C1 (stereo unspecified),4.7
O=C(N1CCN(c2ccc(F)cc2)CC1)C1(c2cccs2)CCOCC1,12.0
COc1cc(/C=N/NC(=O)[C@H](Cc2c[nH]c3ccccc23)NC(=O)OCC(C)C)cc([N+](=O)[O-])c1O,-3.5
Cc1ccc2c(c1)C1NC(=S)NC(C)(O2)C1C(=O)Nc1ccc(Cl)cc1 (stereo unspecified),19.5
O=C1CSC(c2ccccn2)N1c1ccc(F)cc1F (stereo unspecified),6.8
CN(Cc1ccccc1)C(=O)c1oc(=O)c2ccccc2c1-c1ccccc1,17.2
CN1C(=O)N(C)C2(c3ccccc3)N(C(C)(C)C)C(=O)NC12c1ccccc1 (stereo unspecified),17.8
Cc1cc(C(=O)N[C@@H](c2ccccc2)[C@]2(C)C[C@H]2[C@@H](C)C(=O)Nc2ccc3ccccc3c2)no1,1.9
NS(=O)(=O)c1ccc(NC(=O)COC(=O)C2CC(=O)N(Cc3ccccc3)C2)cc1 (stereo unspecified),18.9
O=[N+]([O-])c1ccc2nc(-c3ccccc3)cc(-c3ccccc3)c2c1,6.5
Nc1ccc(N2CCOCC2)c(S(=O)(=O)Nc2cc(Cl)ccc2Cl)c1,7.8
Cc1ccc(N2C(=O)N(CC(=O)c3cc(C)ccc3C)C(=O)C2C)cc1 (stereo unspecified),8.1
CCOc1ccc(-c2nc(CN3CCCCC3CCn3cccn3)c(C)o2)cc1 (stereo unspecified),24.9
C/C(=N\NC(=O)c1ccncc1)c1cccs1,12.7
O=C(CNC(=O)c1ccc(S(=O)(=O)N2CCCC2)cc1)N/N=C/c1c(Cl)cccc1Cl,13.8
CC(=O)NC(CCS(C)(=O)=O)C(=O)Nc1ccc2c(c1)OCCO2 (stereo unspecified),15.3
COc1ccc(/C=C(\NC(=O)c2ccccc2Cl)C(=O)NCCCC(=O)O)cc1,9.8
CCOC(=O)CCC(=O)NNC(=O)c1ccc(NC(=O)c2ccccc2)cc1,13.6
COc1ccc(NC(=O)C2CCCC2)cn1,0.4
O=C(COc1ccccc1)NC1CCCCC1,8.4
CCC/C(=N\NC(=O)CCC(=O)NCc1ccccc1)c1ccccc1,20.2
Cc1cc(C(=O)O)cc(Br)c1N,5.0
CCNc1nc(NCC)nc(NC(N)=S)n1,15.1
CC(=O)c1cc(C#N)c(N2CCOCC2)nc1C,17.5
C[C@@H]1NC(=O)[C@H](CCCN=C(N)N)NC(=O)c2cc([N+](=O)[O-])cc(I)c2OCC[C@@H](C(N)=O)NC1=O,13.7
O=C(Nc1ccccc1)[C@@H]1[C@@H]2C(=O)N(c3ccc(F)cc3)C(=O)[C@@H]2[C@H]2C=CC=NN21,5.2
COCc1cc(C)nc(OCC(=O)N/N=C/c2ccc(-c3cc([N+](=O)[O-])ccc3Cl)o2)c1C#N,19.1
O=C(N1CCCCC1)N1CCC(c2nc3ccccc3[nH]2)CC1,5.1
Cc1ccc(Cl)cc1N1CCN(C(=O)c2cc3c(=O)[nH]c4ccccc4c3n2C)CC1,6.1
CCOc1cc(NC(=O)c2cccs2)c(OCC)cc1NC(=O)CCC(=O)NCCN1CCOCC1,1.4

# Some of the entries so far, as tab-separated lines.
SMILES	Calb biofilm kill
O=C(N1CCCCC1)N1CCC(c2nc3ccccc3[nH]2)CC1	5.1
Cc1ccc(Cl)cc1N1CCN(C(=O)c2cc3c(=O)[nH]c4ccccc4c3n2C)CC1	6.1
O=C(Nc1ccccc1)[C@@H]1[C@@H]2C(=O)N(c3ccc(F)cc3)C(=O)[C@@H]2[C@H]2C=CC=NN21	5.2

# Additional compounds follow:
SMILES,Calb biofilm kill
COc1ccc(-c2cc(C(=O)NCC3CCCO3)c3cc(C)ccc3n2)cc1 (stereo unspecified),15.1
CCOc1ncccc1C(=O)Nc1nnc(C)s1,11.8
Cc1ccnn1CC(=O)N/N=C/c1ccc2c(c1)OCO2,-13.4
CCc1cccc(CC)c1NC(=S)NCCc1c(C)[nH]c2ccc(C)cc12,12.1
COc1ccc(C)cc1NC(=O)CC1COc2ccccc2O1 (stereo unspecified),15.6
NC(=O)N/N=C/c1cc(F)cc(F)c1,17.0
Cc1oc(-c2cc(F)ccc2F)nc1CN1CCCN(C(=O)c2ccco2)CC1,1.3
CCN(CC)c1ccc(/C=N/Nc2nc(C)cc(=O)[nH]2)c(O)c1,17.0
CC(C)C(=O)Nc1ccc(C(=O)c2ccccc2)cc1,6.3
Cc1c(NC(=O)c2cc3nc(-c4ccc(Br)cc4)cc(C(F)(F)F)n3n2)c(=O)n(-c2ccccc2)n1C,9.6
Cc1nc(NC(=O)c2ccc(OCC(C)C)cc2)sc1Cc1ccc2c(c1)OCO2,6.6
CCCNC(=O)CN1C(=O)NC(CCc2ccccc2)C1=O (stereo unspecified),19.1
